# Mtb betalactam: beta-lactam sensitization of Mtb H37Rv, H37Rv; M. tuberculosis H37Rv growth with meropenem, percent inhibition; hits of this screen are not shown here; inhibition, % at 25 µM; 330,000 tested, 0.27% active;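 active = about 74% or more and at least 40 points above the plate without the antibiotic, then above 30% in a dose series; inconclusive = first-round hits that could not be retested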;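 note: growth measured after seven days incubation then overnight dye step; 0% = bacteria only wells and 100% = bacteria with antibiotic; twin plates without the antibiotic show which effects depend on it; some results filed as inactive read as strong as hits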
# Mtb growth: M. tuberculosis H37Rv growth inhibitors, H37Rv strain (AID 1626). M. tuberculosis H37Rv growth inhibition; higher % means a stronger effect. one-dose inhibition, % at 10 µM; IC50 in µM for titrated hits. 220,000 tested, 0.95% active;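 active = confirmed in a dose series; inconclusive = inhibition above 80% but not taken into the dose series; inactive = below 80% or under 30% at every dose of the series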;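 note: bacteria incubated seven days before Alamar blue readout; 0% = bacteria only wells and 100% = bacteria with antibiotic wells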
# RecA splice inh: Mtb RecA intein splicing inhibitors, primary screen, biochemical, fluorescence, HTS | Protein RecA (Mycobacterium tuberculosis (strain ATCC 25618 / H37Rv)), P9WHJ3 | cell-free RecA intein splicing | inhibition, %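 (about 9 µM by stock and volumes)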 | 290,000 tested, 0.75% active | AID 2221, 2009; in the data active = inhibition above about 30%; inconclusive = no clear call, values can overlap the other calls;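 note: 0% = vehicle wells and 100% = reference inhibitor control wells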
# Target sequence (P9WHJ3 whole entry, looked up, canonical isoform): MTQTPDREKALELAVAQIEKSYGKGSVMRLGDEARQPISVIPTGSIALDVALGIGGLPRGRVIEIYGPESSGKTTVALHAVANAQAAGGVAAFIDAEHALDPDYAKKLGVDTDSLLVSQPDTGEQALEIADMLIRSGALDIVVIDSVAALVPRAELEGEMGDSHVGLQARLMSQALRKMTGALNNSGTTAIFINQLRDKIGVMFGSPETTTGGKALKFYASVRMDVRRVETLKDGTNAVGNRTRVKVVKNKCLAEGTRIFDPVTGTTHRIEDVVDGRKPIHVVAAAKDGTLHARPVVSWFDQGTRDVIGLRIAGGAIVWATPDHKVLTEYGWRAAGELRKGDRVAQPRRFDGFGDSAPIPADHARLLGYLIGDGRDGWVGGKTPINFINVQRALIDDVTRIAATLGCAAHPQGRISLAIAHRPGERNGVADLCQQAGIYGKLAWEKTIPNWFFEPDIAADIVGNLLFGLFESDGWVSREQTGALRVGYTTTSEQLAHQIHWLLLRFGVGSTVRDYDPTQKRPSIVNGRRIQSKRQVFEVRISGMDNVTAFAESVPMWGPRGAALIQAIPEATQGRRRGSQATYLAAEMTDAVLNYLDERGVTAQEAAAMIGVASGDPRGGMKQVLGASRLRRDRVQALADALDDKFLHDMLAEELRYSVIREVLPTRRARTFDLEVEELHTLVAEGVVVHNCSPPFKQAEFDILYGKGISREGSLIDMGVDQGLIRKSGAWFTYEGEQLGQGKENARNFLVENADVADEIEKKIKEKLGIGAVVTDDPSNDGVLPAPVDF
# Arbovirus anti: antivirals against arbovirus infection, primary screen, cell-based, full library, 10K replicate subset; inhibition, % at 10 µM; arbovirus infection cell-based antiviral screen; 200,000 tested, 0.37% active;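 active = inhibition from about 30%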;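 note: bluetongue infection of BSR cells; cell survival read as ATP light after 72 h; 0% = infected wells without compound and 100% = uninfected wells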
# YopH PTP inh: YopH tyrosine phosphatase inhibitors, primary screen, biochemical, fluorescence Ex485/Em525. YopH tyrosine phosphatase [Yersinia enterocolitica]. inhibition, %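 (about 10 µM by stock and volumes)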. 140,000 tested, 0.16% active;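 active = inhibition of 50% or more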;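 note: controls were vehicle for no effect and minimum signal wells for full effect; inactives centre near -20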
# Arbovirus anti repeat: also measured in Arbovirus anti; calls as there; inhibition, %; measured here: 10K subset replicate screen; many hits read low in the repeat;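 first of two repeat runs on a subset; 0% = infected and 100% = uninfected wells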
# The depositor's hits bear a star; ? = inconclusive; . = no result given.
SMILES,Mtb betalactam,Mtb growth,RecA splice inh,Arbovirus anti,YopH PTP inh,others
CCN(CC)c1ccc(S(=O)(=O)N(CC)CC)cc1NC(=O)C1CCCC1,9,-5%,11,6,.,
O=C(CCn1cncn1)N1CCN(S(=O)(=O)c2ccc(Cl)cc2)CC1,-5,.,-1.9,.,.,
O=C(Nc1ccc(Cl)c(Cl)c1)OCc1cncs1,-10,-2%,5.2,-6,5,
CCN(CC)c1ccc(/C=N/Nc2nn[nH]n2)cc1,4,-2%,-5.8,.,.,
CCC(C)Sc1ccc([C@@H]2[C@@H]3C(=O)N(C)C(=O)[C@@H]3[C@]3(C(=O)OC)CCCCN23)cc1 (some centres undefined),-10,.,3.2,.,.,
COc1ccc(CCNC(=O)CSc2nnc(CNC(=O)c3ccco3)o2)cc1OC,-2,-5%,1.5,-2,-23,
C#Cc1ccc([C@@H]2C=C(C(=O)N3CCOCC3)O[C@H](OCCCCO)C2)cc1,-5,-5%,-0.6,1,.,
CCOC(=O)c1oc2c(C)c(O)ccc2c(=O)c1-c1nncn1-c1ccccc1,0,-7%,-1.5,8,-27,
CCC/C(=N\NC(=O)c1ccccc1C)c1ccccc1,0,-6%,-16,2,-27,
CCOc1ccccc1OCCC(=O)Nc1ccc(F)c(Cl)c1,9,3%,1.6,-3,-16,
N#CC1=C(SCc2ccccc2)NC(=O)CC1c1ccccc1 (centres undefined),-3,-6%,2.4,-4,-2,
O=C(N/N=C/c1ccc([N+](=O)[O-])s1)C(O)c1ccccc1 (centres undefined),99,54%,1.6,-29,32,
CCN1CCN(C(=O)C(=O)c2cn(CC(=O)N3CCCC3)c3ccccc23)CC1,?,.,-1.9,.,.,
CCOC(=O)C1CCN(C(=O)c2sc3nc(-c4ccccc4)cn3c2C)CC1,-13,.,0.7,8,-7,
COc1cccc(/C=N/n2c(C)nc3ccccc3c2=O)c1O,18,-7%,1.5,-14,-31,
Cc1cc(=O)oc2cc(OCC3CC(c4ccccc4Cl)=NO3)ccc12 (centres undefined),-1,-6%,0.4,-20,-16,
O=C(CNC(=O)N1CC(=O)Nc2ccccc21)Nc1ccccc1,-1,.,1.5,.,.,
O=C(OCC(=O)N1CCCc2ccccc21)c1cc(S(=O)(=O)N2CCOCC2)ccc1Cl,-3,.,-3.2,.,.,
CCCCN(Cc1ccco1)S(=O)(=O)c1csc(C(N)=O)c1,10,.,1.9,.,.,
COc1cccc(C(=O)C2CCCN(C(=O)CCc3scnc3C)C2)c1 (centres undefined),-16,4%,-1.6,10,.,
Cc1cc(=O)[nH]c(SCC(=O)NC2CCCCC2)n1,0,.,-14,.,.,
Clc1ccc2nc(C3CCN(Cc4nnnn4C4CCCCC4)CC3)[nH]c2c1,-12,-12%,2.9,-8,-13,
O=C(COc1ccccc1Cl)Nc1ccc2oc(=O)ccc2c1,-13,.,2.6,.,.,
CN(CC(=O)Nc1ccccc1Cl)C(=O)CCSc1ccc(F)cc1,-16,.,-5.4,.,.,
COc1ccc(C(CC(=O)N2CCCC2)c2c(OC)cc(OC)c3ccc(=O)oc23)cc1 (centres undefined),-2,-2%,-0.7,.,.,

# Continued.
SMILES,Mtb betalactam,Mtb growth,RecA splice inh,Arbovirus anti,YopH PTP inh,others
COc1cc(N=Nc2ccccc2C(=O)O)ccc1O,5,-1%,-0.3,.,.,
CN(CC(=O)Nc1ccc(F)cc1)C(=O)c1ccncc1,6,.,3.6,.,.,
COc1cccc(S(=O)(=O)Nc2ccc3c(c2)OCCO3)c1,1,.,0.5,.,.,
CNC(=S)N1CCN(CCN=Cc2c(O)n(-c3ccc(C)cc3)c(=S)[nH]c2=O)CC1,-2,.,0.8,.,.,
Cc1cccc(N2CCN(c3ccc4cc(S(=O)(=O)N5CCCCC5)ccc4n3)CC2)c1C,7,.,-1.5,.,.,
COc1ccc(CC(=O)OCC(=O)NCCNC(=O)COC(=O)Cc2ccc(OC)cc2)cc1,-1,.,-1.0,.,.,
CCCCn1c(N)c(N(CC(C)C)C(=O)c2cccc(S(=O)(=O)N(C)c3ccccc3)c2)c(=O)[nH]c1=O,-13,.,3.0,.,.,
Cc1[nH]n(-c2ccc(Cl)cc2)c(=O)c1C(=O)c1ccccc1,68,-6%,3.2,17,.,
CC(C)CCOP(N)(=O)Oc1ccccc1Cl (centres undefined),12,.,-0.1,.,.,
CCCNS(=O)(=O)c1ccc(CCC(=O)N2CCN(c3ccc(F)cc3)CC2)cc1,-2,7%,-2.3,14,-21,
COc1ccc(NC(=O)c2ccccc2SC)cc1OC,42,5%,9.8,2,-12,
CCCn1c2ccc(/C(C)=N\O)cc2c2cc(/C(C)=N/O)ccc21,-1,9%,3.1,-4,0,
CCOC(=O)N1CCN(C(=O)C2CCN(Cc3ccc(OC)cc3OC)CC2)CC1,-2,-12%,1.0,7,-14,
O=C(NCCCc1ccccc1)c1ccc([N+](=O)[O-])cc1Cl,0,.,0.2,.,.,
O=C(NC1CCCCCC1)C1C2C=CC3(CN(Cc4cccnc4)C(=O)C13)O2 (centres undefined),1,-1%,0.4,-2,-34,Arbovirus anti repeat=6
COc1cc2c(cc1OC)C(c1ccccc1)N(C(=O)c1ccco1)CC2 (centres undefined),?,-13%,2.1,1,-15,Arbovirus anti repeat=-6
O=C(NC(=S)N(Cc1ccccc1)Cc1ccccc1)c1ccccc1F,56,17%,16,-12,6,
CC(C)(NO)/C(=N/O)c1ccc(Br)cc1,-15,-6%,-4.6,-2,-21,
O=C(NCCCN1CCOCC1)c1cc2ccccc2oc1=O,-13,-8%,-0.9,5,-28,
COc1ccc(C(=O)NCCCNC(=O)c2ccccn2)cc1Br,4,.,1.0,.,.,
O=C(N/N=C1\CCCc2ccccc21)c1ccccc1[N+](=O)[O-],-2,0%,-1.6,5,-23,
CCSc1n[nH]c(=S)s1,4,-3%,2.3,2,.,
CCn1cnc2sc(C(=O)Oc3ccc(Br)cc3)c(C)c2c1=O,93,.,0.1,-2,.,
Cc1ccc(C)c(NS(=O)(=O)c2ccc(-c3coc(C)n3)cc2)c1,-2,.,-2.6,.,.,
O=C(O)C1CCCCC1C(=O)Nc1ccc(S(=O)(=O)N2CCCCCC2)cc1 (centres undefined),3,.,-0.7,.,.,

# (continued)
SMILES,Mtb betalactam,Mtb growth,RecA splice inh,Arbovirus anti,YopH PTP inh,others
CC1CCCC(NC(=O)COC(=O)/C=C/c2ccc3c(c2)OCO3)C1C (centres undefined),3,8%,0.1,9,-27,
O=C(CSc1nc2[nH]ncc2c(=O)[nH]1)NCCc1ccccc1,-3,1%,-2.3,4,.,
CC1CCCCN1Cc1c(O)ccc2c(=O)c(-c3ccc(Cl)cc3)coc12 (centres undefined),-3,.,-0.7,.,.,
CCn1c(SCC(=O)c2ccc(C)cc2)nnc1-c1ccoc1C,-11,2%,4.4,3,-8,
O=C1CC(c2ccccc2)CC(O)=C1C=Nc1ccccc1O (centres undefined),91,58%,-3.7,-30,.,
N#Cc1cccc(N=Cc2c(O)ccc3ccccc23)c1,1,-2%,1.6,12,-32,
Cc1ccc(C(=O)OCC(=O)c2ccccc2)cc1,-1,.,2.2,.,.,
CC1=CC(C)(C)Nc2ccc(OC(=O)C(Cc3ccccc3)N3C(=O)c4ccccc4C3=O)cc21 (centres undefined),-5,-5%,8.2,0,-38,
NC(=O)CN1C(=O)C2C3c4ccccc4C(c4ccccc43)C2C1=O (centres undefined),-5,2%,3.7,5,-2,
O=C(NCc1ccco1)/C(=C/c1cccc(C(F)(F)F)c1)c1nc2ccccc2[nH]1,-4,7%,38*,-20,-41,
O=C(Oc1c(CN2CCOCC2)cc(Cl)c2cccnc12)c1ccccc1Br,97,6%,-2.5,.,.,
CC(C)=NNC1=NC(C)(C)Cc2ccccc21,-6,-7%,0.1,.,.,
Cc1cc(OCCN2CC2)c2ccccc2n1,4,-2%,0.1,.,.,
COc1ccc(-c2oc3ncnc(NCCCO)c3c2-c2ccc(OC)cc2)cc1,36,.,9.7,.,.,
CCOC(=O)C1=C(C)Nc2ccccc2S1,4,3%,-11,.,.,
Cc1ccc(C(=O)Nc2nnc(COc3ccccc3)s2)cc1,-5,-1%,5.0,-4,.,
Cc1cccc(C(=O)NC(=S)NNC(=O)Cc2ccccc2)c1,99,76%,9.2,-31,-12,
COc1ccc(N2CCN(S(=O)(=O)CCNC(=O)c3ccc4c(c3)OCO4)CC2)cc1,-7,.,1.3,.,.,
CC(C)C(C(=O)Nc1ccc(S(N)(=O)=O)cc1)N1C(=O)c2ccccc2C1=O (centres undefined),-5,2%,-0.1,5,.,
O=C(N/N=C/c1ccc(O)c(O)c1)C1c2ccccc2Oc2ccccc21,1,-1%,-5.4,-8,-4,
COC(=O)c1cc(S(=O)(=O)Nc2ccc(C)cn2)c[nH]1,2,.,-2.0,.,.,
COc1cc(/C=C2\SC(c3ccc(C)cc3)=NC2=O)cc(OC)c1O,1,1%,-0.3,2,-33,
Cc1ccc(C)c(N2C(=O)c3ccc(C(=O)OCC(=O)c4c(N)n(C)c(=O)n(C)c4=O)cc3C2=O)c1,-1,2%,2.4,-3,-35,
O=C(Cn1c(=O)oc2ccccc21)NCCc1ccccc1,-2,.,-0.9,.,.,
COc1cccc(CN2CCCC(C(=O)N3CCCCC3)C2)c1OC (centres undefined),-15,-1%,-3.3,-2,-60,

# The list continues.
SMILES,Mtb betalactam,Mtb growth,RecA splice inh,Arbovirus anti,YopH PTP inh,others
COC(=O)c1ccc(CSc2cc(C)c3cc(C)cc(C)c3n2)o1,3,8%,-3.5,0,.,
O=S(=O)(NCC(c1ccc2c(c1)OCO2)N1CCOCC1)c1ccc(Br)cc1 (centres undefined),-2,.,-0.6,.,.,
Cc1ccc(S(=O)(=O)N(C)CC(=O)Nc2ccncc2)cc1,-13,-6%,0.5,6,-22,
Cc1ccc(-n2c(=O)[nH]c3cc(C(=O)NC4CCN(Cc5ccccc5)CC4)ccc3c2=O)cc1,-11,-3%,-1.7,3,-5,
Cc1nc(-c2ccc(Cl)cc2)sc1C1(C)CC(c2cccc([N+](=O)[O-])c2)=NO1 (centres undefined),-2,-9%,-0.1,.,.,
O=C(CCN1C(=O)C2CC=CCC2C1=O)N1CCN(c2ccccn2)CC1 (centres undefined),-4,-5%,0.4,7,-50,
CCc1ccc(Nc2n[n+](-c3ccccc3)c(-c3cc(OC)c(OC)cc3Br)s2)cc1,2,.,16,.,.,
COc1ccc(CN2CCN(CCCc3ccccc3)C(CCO)C2)c(O)c1 (centres undefined),1,.,-0.9,.,.,
COc1ccc(CCN2CC(C(=O)NCC(=O)Nc3ccc(F)c(F)c3)CC2=O)cc1OC (centres undefined),-13,.,-1.0,.,.,

# In the list so far, these have an NH in an aromatic ring.
SMILES,Mtb betalactam,Mtb growth,RecA splice inh,Arbovirus anti,YopH PTP inh,others
CCN(CC)c1ccc(/C=N/Nc2nn[nH]n2)cc1,4,-2%,-5.8,.,.,
Cc1cc(=O)[nH]c(SCC(=O)NC2CCCCC2)n1,0,.,-14,.,.,
Clc1ccc2nc(C3CCN(Cc4nnnn4C4CCCCC4)CC3)[nH]c2c1,-12,-12%,2.9,-8,-13,
CNC(=S)N1CCN(CCN=Cc2c(O)n(-c3ccc(C)cc3)c(=S)[nH]c2=O)CC1,-2,.,0.8,.,.,
CCCCn1c(N)c(N(CC(C)C)C(=O)c2cccc(S(=O)(=O)N(C)c3ccccc3)c2)c(=O)[nH]c1=O,-13,.,3.0,.,.,
Cc1[nH]n(-c2ccc(Cl)cc2)c(=O)c1C(=O)c1ccccc1,68,-6%,3.2,17,.,
CCSc1n[nH]c(=S)s1,4,-3%,2.3,2,.,
O=C(CSc1nc2[nH]ncc2c(=O)[nH]1)NCCc1ccccc1,-3,1%,-2.3,4,.,
O=C(NCc1ccco1)/C(=C/c1cccc(C(F)(F)F)c1)c1nc2ccccc2[nH]1,-4,7%,38*,-20,-41,
COC(=O)c1cc(S(=O)(=O)Nc2ccc(C)cn2)c[nH]1,2,.,-2.0,.,.,
Cc1ccc(-n2c(=O)[nH]c3cc(C(=O)NC4CCN(Cc5ccccc5)CC4)ccc3c2=O)cc1,-11,-3%,-1.7,3,-5,

# Only part of the results is shown; count on the stated rates, not on these rows.
